PV pol inh = inhibitors of poliovirus RNA polymerase binding and polymerization. P03300. poliovirus polymerase elongation, fluorescence polarization; hits give low values. % elongation, % (compound at 16.7 µg/mL). 150,000 compounds, 0.66% hits; in the data active means % elongation below about 90%; further: some results filed as inactive read as strong as hits
Target sequence (P03300 1749-2209 limits assumed): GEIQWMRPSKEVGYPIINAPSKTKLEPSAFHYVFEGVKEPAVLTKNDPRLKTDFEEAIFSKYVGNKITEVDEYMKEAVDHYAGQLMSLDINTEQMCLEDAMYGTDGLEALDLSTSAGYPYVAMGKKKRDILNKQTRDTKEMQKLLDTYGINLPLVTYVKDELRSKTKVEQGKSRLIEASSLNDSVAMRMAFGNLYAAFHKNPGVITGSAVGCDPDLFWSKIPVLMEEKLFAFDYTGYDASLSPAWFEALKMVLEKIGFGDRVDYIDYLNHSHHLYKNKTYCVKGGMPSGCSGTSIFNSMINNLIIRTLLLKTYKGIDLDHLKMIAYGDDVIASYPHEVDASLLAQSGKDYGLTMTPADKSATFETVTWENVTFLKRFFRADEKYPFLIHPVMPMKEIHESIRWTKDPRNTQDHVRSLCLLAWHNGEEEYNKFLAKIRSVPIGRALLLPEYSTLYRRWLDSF
PV pol inh intensity = second read-out of PV pol inh, no call of its own (marks repeat the call); % elongation; measured here: total intensity read-out; formula for this scale not given here;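 total fluorescence in place of polarization; lower means less elongation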
An asterisk follows results filed as active.

SMILES | PV pol inh | PV pol inh intensity
COc1cccc(NC(=O)CC2NCCNC2=O)c1 (centres undefined) | 101 | 105
COc1cc(CN(CC2CCCO2)C(=O)c2ccccc2F)cc(OC)c1OC (centres undefined) | 104 | 110
COc1cc(NC(=O)N2c3ccccc3Sc3ccccc32)cc(OC)c1 | 109 | 111
Cc1ccccc1-n1nc(CO)c(C(=O)NCC(c2ccccc2)c2ccccc2)n1 | 109 | 113
COc1cc(OC)cc(C(=O)Nc2ccc(S(=O)(=O)N3CCCCC3c3cccnc3)cc2)c1 (centres undefined) | 104 | 114
CCN(CC)c1ccc(C(=O)Nc2ccc3nc(N(CC)CC)cc(C)c3c2)cc1 | 108 | 111
CCCCc1nn2c(=O)cc(COC(=O)c3cccs3)nc2s1 | 103 | 111
CCCOc1ccc(C(=O)NCC2OCCc3ccccc32)cc1 (centres undefined) | 102 | 105
CCOc1ccccc1CC1C(=O)Nc2ccc(Br)cc21 (centres undefined) | 104 | 93
Cc1cccc(-c2noc(-c3ccc(NCC4CCCO4)c([N+](=O)[O-])c3)n2)c1 (centres undefined) | 103 | 99
Cc1c(Cl)cccc1NC(=O)CN1C(=O)C(C)N=C(c2ccccc2)c2ccccc21 (centres undefined) | 114 | 113
CC(=O)c1cccc(NC(=O)CN2C(=O)CCc3cc(S(=O)(=O)N4CCCCC4)ccc32)c1 | 100 | 101
COC(=O)c1ccc(NC(=O)CSc2ncc3c(n2)-c2cc(Cl)ccc2N(Cc2ccccc2)S3(=O)=O)cc1 | 109 | 117
CCCS(=O)(=O)c1ncc(Cl)c(C(=O)Nc2c(C(=O)Nc3ccccc3)oc3ccccc23)n1 | 117 | 115
CCc1nnc(NC(=O)CSc2nccn2Cc2ccc(Cl)cc2)s1 | 103 | 111
COc1ccc(Nc2nc3ccc(Cl)cc3n3nnnc23)cc1OC | 110 | 121
CCC(CC)C(=O)Nc1cccc(-c2nc3ccccc3s2)c1 | 102 | 99
Cc1ccc(C)c(N2CCN(Cc3nnc(-c4ccccc4)o3)CC2)c1 | 110 | 114
Cc1cccc(NC(=O)CSc2nc(C)c(Cc3ccccc3)c(=O)[nH]2)c1C | 110 | 111
Cc1cccc(Cn2nc(C)n3c(cc4cc(C)ccc43)c2=O)c1 | 107 | 108
Cc1ccc2oc(C(=O)Nc3sc4c(c3C(=O)NCc3ccccc3)CCCC4)cc(=O)c2c1 | 106 | 112
CCc1ccc(S(=O)(=O)c2nnn3c2nc(N(CC)Cc2ccccc2)c2cc(Cl)ccc23)cc1 | 99 | 109
CCS(=O)(=O)c1nc(S(=O)(=O)c2ccc(Cl)cc2)c(NCc2ccc(Cl)cc2)s1 | 103 | 108
Fc1ccc(-c2noc3ncnc(N4CCCCC4)c23)cc1 | 104 | 100

Some of the entries above, set out differently.
structure	PV pol inh	PV pol inh intensity
Cc1ccc(C)c(N2CCN(Cc3nnc(-c4ccccc4)o3)CC2)c1	110	114
Cc1cccc(NC(=O)CSc2nc(C)c(Cc3ccccc3)c(=O)[nH]2)c1C	110	111
Cc1cccc(Cn2nc(C)n3c(cc4cc(C)ccc43)c2=O)c1	107	108
Cc1ccc2oc(C(=O)Nc3sc4c(c3C(=O)NCc3ccccc3)CCCC4)cc(=O)c2c1	106	112

Further records follow.
SMILES | PV pol inh | PV pol inh intensity
CCc1cccc(NC(=O)c2coc(=O)c3ccccc23)c1 | 105 | 112
Cc1ccc(C)c(N2CCN(C(=O)c3cc(S(=O)(=O)N4CCCCC4)cn3C)CC2)c1 | 103 | 108
CCCCN(C)C(=O)c1cn(C)c2ccc(S(=O)(=O)N3CCC(C)CC3)cc2c1=O | 106 | 110
Cc1ccc(CNC(=O)c2cccn2-c2nnc(N3CCCCC3)s2)cc1 | 115 | 110
Cc1ccc(-n2cc(C(=O)Oc3cccc(C)c3)c3ccccc3c2=O)cc1 | 110 | 112
CCc1ccc(C2=C(C)C(N3CCC(C(=O)NCc4ccccc4)CC3)=NS2(=O)=O)cc1 | 102 | 108
COc1cc([N+](=O)[O-])ccc1NC(=O)N1CCN(c2cc(-c3noc(C)n3)ccc2C)CC1 | 112 | 116
CN(c1ccccc1)S(=O)(=O)c1nnc(NC(=O)COc2ccccc2)s1 | 105 | 103
CC(C)(C)C(=O)NCCc1nc2ccccc2n1CCCCOc1ccc(Cl)cc1 | 110 | 111
O=C(Nc1ccc(S(=O)(=O)N(Cc2ccccc2)c2ccccc2)cc1)c1ccccc1F | 111 | 111
Nc1nn(-c2ccccc2)nc1C(=O)OCc1ccccc1Br | 107 | 112
COc1cccc(-n2c(C)nc3c(cnn3-c3ccc(C)c(C)c3)c2=O)c1 | 104 | 107
COc1cccc(N2CCN(C(=O)c3cc4c(s3)-c3c(C)cccc3OC4)CC2)c1 | 108 | 112
Cc1c(-c2ccccc2)c(=O)oc2c(CN3CCOCC3)c(O)ccc12 | 106 | 113
CCOc1ccc(Cn2c(CNS(=O)(=O)c3ccc(Cl)s3)nc3cccnc32)cc1 | 105 | 110
COc1ccc(Cl)cc1NC(=O)C(C)n1c(=O)cc(C(F)(F)F)c2c(C)nn(C)c21 (centres undefined) | 99 | 95
O=c1ccc2cc(S(=O)(=O)N3CCCC3)ccc2[nH]1 | 111 | 114
CCOc1cc(-c2nc(-c3ccc(-c4ccccc4)nc3OCC)no2)cc(OCC)c1OCC | 101 | 105
CCOC(=O)N1CCc2c(sc3c2c(=O)n(CCc2ccccc2)c(=O)n3CC(=O)Nc2ccccc2C)C1 | 106 | 110
CC1CCN(c2nn3c(=O)c(C(=O)NCCc4ccc(Cl)cc4)cnc3s2)CC1 | 104 | 111
CCOc1ccc(CNC(=O)C2CCCN(S(=O)(=O)c3ccc4c(c3)CCCC(=O)N4)C2)cc1 (centres undefined) | 110 | 112
COc1ccc(NC(=O)c2oc3ccccc3c2NC(=O)COc2ccc(F)cc2)c(OC)c1 | 106 | 107
O=C(CCCn1c(=O)c2ccccc2n(CC(=O)Nc2cccc(C(F)(F)F)c2)c1=O)NCc1ccc2c(c1)OCO2 | 106 | 107
C=Cc1ccc(CN2C(=O)N(c3ccc(C)c(C)c3)S(=O)(=O)c3ccccc32)cc1 | 109 | 114
COc1ccc(CNC(=O)c2ccc3[nH]c(C)c(C)c3c2)c(OC)c1 | 103 | 103
Cc1ccc(Cn2c(CNS(=O)(=O)c3ccc(F)c(Cl)c3)nc3cccnc32)cc1 | 109 | 107
CCOC(=O)c1c(C)oc2ccc(N(C(C)=O)S(=O)(=O)c3c(C)cc(C)cc3C)cc12 | 102 | 104
Cc1ccc(Cl)cc1NC(=O)c1cc2c(=O)n3cccc(C)c3nc2n1C | 111 | 117
O=C(Cn1c(-c2cccs2)cc2cc(Cl)ccc21)NCc1ccccc1 | 109 | 110
CC(=O)N1c2ccccc2CC1C(=O)N1CCN(c2ccccc2)CC1 (centres undefined) | 109 | 114
Cc1cccc(CNC(=O)c2ccc(-c3nc(CS(=O)(=O)c4ccccc4)c(C)o3)cc2)c1 | 110 | 109
COc1ccc(-c2nc(CSCC(=O)N3CCN(c4cccc(C)c4C)CC3)c(C)o2)cc1OC | 102 | 111
COc1ccc(OC)c(-c2noc(N3CCN(c4cccc(C)c4C)CC3)n2)c1 | 101 | 104
COc1ccc(OCC(=O)Nc2nnc(S(=O)(=O)N3CCc4ccccc43)s2)cc1 | 117 | 112
O=C(c1cccs1)N(Cc1cccnc1)c1nc2ccc(F)cc2s1 | 114 | 109
CC(=O)c1cccc(NC(=O)c2noc3c2CSc2ccccc2-3)c1 | 110 | 106

Structures from the list above that contain an aryl thioether with sulfur outside any ring:
SMILES | PV pol inh | PV pol inh intensity
COC(=O)c1ccc(NC(=O)CSc2ncc3c(n2)-c2cc(Cl)ccc2N(Cc2ccccc2)S3(=O)=O)cc1 | 109 | 117
CCc1nnc(NC(=O)CSc2nccn2Cc2ccc(Cl)cc2)s1 | 103 | 111
Cc1cccc(NC(=O)CSc2nc(C)c(Cc3ccccc3)c(=O)[nH]2)c1C | 110 | 111

Further results
SMILES | PV pol inh | PV pol inh intensity
Cc1ccc(C)c(Nc2nn3c(=O)c4ccc(C(=O)NCc5ccccc5)cc4nc3s2)c1 | 101 | 104
COc1ccc(-n2c(SCC(=O)NCc3ccco3)nc3c([nH]c4ccccc43)c2=O)cc1 | 107 | 116
CC1=C(C(=O)OC2CCCCCC2)C(c2cccc(Cl)c2)CC(=O)N1 (centres undefined) | 102 | 105
O=C(NCc1ccco1)c1ccc2c(c1)N(Cc1ccccc1)C(=O)c1ccccc1S2(=O)=O | 108 | 110
Cc1ccc(NC(=O)Nc2nc3c(s2)CCCCCC3)cc1C | 102 | 107
COc1ccc(N2CCN(C(=O)CSc3n[nH]c(-c4ccccc4Cl)n3)CC2)cc1 | 99 | 102
CCC(Sc1nnc2c(n1)[nH]c1ccccc12)C(=O)Nc1ccccc1OC (centres undefined) | 109 | 106
Cn1c(Oc2ccccc2)nc2c1c(=O)n(Cc1ccc(Cl)cc1Cl)c(=O)n2C | 107 | 109
CCC1=Nc2cc(C(=O)NC3CCC(C)CC3)ccc2Sc2ccc(C)cc21 (centres undefined) | 106 | 107
COc1ccc(-c2noc(C3CC(=O)N(c4ccc5c(c4)OCCO5)C3)n2)c(OC)c1 (centres undefined) | 105 | 114
Cc1cccc(N(C)C(=O)Cn2c(=O)oc3cc(S(=O)(=O)N4CCCCC4)ccc32)c1 | 102 | 108
COc1cc(C2NC(=O)c3c(sc4c3CCN(C)C4)N2)ccc1OC(=O)c1ccccc1 (centres undefined) | 136 | 199
CCCN1CN=C(NS(=O)(=O)c2ccc(NC(C)=O)cc2)NC1 | 110 | 110
COc1ccc(N2CCN(C(=O)CCC(=O)NNc3nc4ccccc4c4nc(C)nn34)CC2)cc1 | 87* | 87*
COc1cc2oc(=O)c(CC(=O)NCCc3ccccc3F)c(C)c2cc1OC | 110 | 114
COc1cc(OC)c(N(C)C(=O)CCNC(=O)Cn2cnc3ccccc3c2=O)cc1Cl | 111 | 109
Cc1coc2cc3oc(=O)c(CCC(=O)NCc4ccc(Cl)cc4)c(C)c3cc12 | 100 | 104
CC(=O)N1c2ccc(S(=O)(=O)N3CCCCCC3)cc2CC1C(=O)NC(C)C (centres undefined) | 102 | 99
CCCN(Cc1cccs1)C(=O)Nc1cc(OC)ccc1OC | 109 | 115
CCOc1cc(C(=O)NCCc2sc(-c3ccc(F)cc3)nc2C)cc(OCC)c1OCC | 103 | 104
O=C(CCS(=O)(=O)c1ccc(Br)s1)Nc1cc(C(F)(F)F)cc(C(F)(F)F)c1 | 105 | 103
O=[N+]([O-])c1cc(-c2nc(-c3ccco3)no2)ccc1NCc1ccccc1 | 109 | 114
COc1ccc(-c2cc(C(=O)Nc3c(C)nn(Cc4ccc(F)cc4)c3C)no2)cc1OC | 104 | 107
COC(=O)c1ccccc1-n1c(CCC(=O)O)ccc1-c1ccccc1 | 107 | 98
Cc1ccc(Cc2nc3ccccc3nc2SCC(=O)N2CCN(c3ccccc3F)CC2)cc1 | 109 | 111
COc1ccc(-c2cc(C(F)(F)F)nc(NCc3ccc(Cl)cc3)n2)cc1 | 102 | 102
Cc1ccc(-n2c(=O)c3ccc(C(=O)NCc4ccccc4Cl)cc3n(Cc3ccccc3F)c2=O)cc1 | 103 | 105
COc1ccc(Cl)cc1NC(=O)c1sc2nc3n(c(=O)c2c1C)CCC3 | 105 | 111
O=C(Nc1cccc(C(F)(F)F)c1)c1cnn(-c2cccc(F)c2)c1C1CCNCC1 | 102 | 106
O=C(NCCc1ccccc1)c1ccc(Cn2c(SCc3ccc(F)cc3)nc3cccnc32)cc1 | 112 | 111
COC(=O)c1scc(-c2ccc(C)cc2)c1S(=O)(=O)Nc1cc(C)c(Cl)cc1OC | 100 | 97
CCOC(=O)N1CCc2c(sc3c2c(=O)n(-c2ccccc2C(F)(F)F)c(=O)n3Cc2ccccc2C)C1 | 106 | 109
CCOC(=O)c1c(NC(=O)c2ccc(C)c(C)c2)sc2c1CCCCC2 | 100 | 101
Cc1ccc(NS(=O)(=O)c2ccc3c(c2)CCCN3C(=O)C2CCC2)cc1Cl | 104 | 104
CSc1ccc(-c2nc3cc(C)ccn3c2Nc2ccc(C)cc2)cc1 | 105 | 105
COC(=O)c1c(SC)nc2ccccc2c1OCc1ccccc1Cl | 99 | 105
CCOc1ccc(NC(=O)C2CCN(S(=O)(=O)c3c(C)noc3/C=C/c3c(C)cc(C)cc3C)CC2)cc1 | 109 | 110
COc1ccccc1NC(=O)Cn1c(SCC(=O)NCc2ccccc2)nc2ccccc21 | 104 | 105
O=C(NC1CC(=O)N(c2ccc(F)cc2)C1)c1cc2ccccc2o1 (centres undefined) | 113 | 107
CCOC(=O)c1cc2c(=O)n3ccccc3nc2n(CCOC)c1=NC(=O)c1c(-c2c(F)cccc2Cl)noc1C | 98 | 100

One compound at a time, as listed above. Order of values: PV pol inh | PV pol inh intensity
Record of CSc1ccc(-c2nc3cc(C)ccn3c2Nc2ccc(C)cc2)cc1 = 105 | 105
Record of CCN(CC)c1ccc(C(=O)Nc2ccc3nc(N(CC)CC)cc(C)c3c2)cc1 = 108 | 111

Compound activity from PubChem.

A portion of the library; count on the stated rates, not on these rows.
